Vaccinia inh: blocks a specific stage of Vaccinia orthopoxvirus infection; Vaccinia-infected cells, mCherry/Venus stage reporter fluorescence; stronger effect = lower value; some inactives read as strong as hits; activity change (mCherry), % (concentration not given with the values); 89,000 tested, 0.01% active;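 active = mCherry past -33% and 40 or more points under the early reporter, replicates agreeing; inconclusive = past -33% without that gap or agreement; tested in A549 cells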;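 also: scaled between vehicle wells and reference inhibitor wells; 23 nL library stock went into each well; one replicate is shown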
Vaccinia inh Venus: also measured in Vaccinia inh; calls as there; activity change (Venus), %; measured here: Venus reporter, other viral stage;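 negative = less Venus signal; first of two replicates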
* hit, by the source's call; ? = inconclusive; . = not tested or not shown. Some of the compounds tested, so the mix of outcomes need not match the whole.

SMILES	Vaccinia inh	Vaccinia inh Venus
CC(C)NC(=O)N(C)C[C@H]1Oc2ccc(NS(=O)(=O)c3ccc(F)cc3)cc2C(=O)N([C@H](C)CO)C[C@@H]1C	4	3
COCC(=O)N(C)C[C@@H]1Oc2cc(-c3cncnc3)ccc2S(=O)(=O)N([C@H](C)CO)C[C@@H]1C	19	15
O=C(C[C@H]1CC[C@@H]2[C@H](COC[C@H](O)CN2C(=O)c2ccccc2)O1)NCc1cccc(F)c1	-7	-3
CCCNC(=O)Nc1ccc2c(c1)C(=O)N(C)C[C@H](OC)[C@H](C)CN(Cc1cncnc1)[C@H](C)CO2	-4	-3
C[C@@H]1CN([C@@H](C)CO)C(=O)Cc2cc(NC(=O)Nc3ccc(C(F)(F)F)cc3)ccc2O[C@H]1CN(C)C(=O)Nc1ccc(F)cc1	-10	-6
C[C@@H]1CCCCO[C@@H](CN(C)C(=O)Nc2ccc3c(c2)OCO3)[C@H](C)CN([C@H](C)CO)C(=O)c2cc(NC(=O)Nc3cccc4ccccc34)ccc2O1	-9	6
C[C@@H]1CN([C@@H](C)CO)C(=O)c2cc(NC(=O)NC3CCCCC3)ccc2O[C@H]1CN(C)S(=O)(=O)c1ccccc1	19	8
O=C(C1CC1)N1CCCCN2[C@@H](CO)[C@H](c3ccc(C#CC4CCCC4)cc3)[C@@H]2C1	-23	-29
C[C@@H]1CCCCO[C@H](CN(C)S(C)(=O)=O)[C@@H](C)CN([C@H](C)CO)C(=O)c2cc(NS(=O)(=O)c3ccc(F)cc3)ccc2O1	19	12
COCC(=O)N1[C@@H]2Cn3c(ccc(/C=C/c4ccccc4)c3=O)[C@H]1[C@@H](C(=O)N1CCOCC1)[C@@H]2CO	0	-4
CC(C)CC#Cc1ccc2c(c1)O[C@@H](CN(C)C(=O)c1cccnc1)[C@H](C)CN([C@H](C)CO)S2(=O)=O	5	14
CO[C@H]1CN(C)C(=O)c2cc(NC(=O)C3CC3)ccc2OC[C@H](C)N(C(=O)c2ccccc2F)C[C@H]1C	13	10
C/C=C/c1ccc([C@H]2[C@@H](CO)N3CCCCN(C(=O)Nc4cc(F)ccc4F)C[C@H]23)cc1	-27	-19
Cc1ccc(S(=O)(=O)Nc2cccc3c2O[C@H](CN(C)Cc2ccc(C(=O)Nc4ccccc4N)cc2)[C@@H](C)CN([C@H](C)CO)C3=O)cc1	16	10
CS(=O)(=O)Nc1ccc2c(c1)[C@H]1C[C@H](CC(=O)NCCN3CCCCC3)O[C@@H](CO)[C@H]1O2	8	4
C[C@@H]1CN([C@H](C)CO)C(=O)c2cc(NC(=O)Nc3cccc4ccccc34)ccc2O[C@@H](C)CCCCO[C@H]1CN(C)C(=O)NC1CCCCC1	13	26
Cc1noc(C)c1NC(=O)Nc1ccc2c(c1)CC(=O)N([C@H](C)CO)C[C@@H](C)[C@H](CN(C)C(=O)NC1CCCCC1)O2	15	4
C[C@@H]1CN([C@H](C)CO)C(=O)c2cc(C3=CCCCC3)cnc2O[C@H]1CN(C)Cc1ccccc1F	?	.
C[C@H]1CCCCO[C@@H](CN(C)Cc2ccc3c(c2)OCO3)[C@@H](C)CN([C@@H](C)CO)C(=O)c2cc(NC(=O)Nc3ccccc3)ccc2O1	?	.
CN1C(=O)c2cc(NC(=O)c3cscn3)ccc2OC[C@H]2O[C@H](CC(=O)N3CCCCC3)CC[C@@H]21	15	9
O=C(C1CCC1)N1CC(=O)N2[C@H](CO)[C@@H](c3ccc(C#CCc4ccccc4)cc3)[C@@H]2C1	-15	-7
C[C@H](CO)N1C[C@H](C)[C@H](CN(C)C)Oc2ccc(NC(=O)Nc3cccc4ccccc34)cc2CC1=O	-5	-12
C[C@H]1CN([C@@H](C)CO)C(=O)Cc2cc(NC(=O)Nc3cccc4ccccc34)ccc2O[C@H]1CN(C)S(=O)(=O)c1ccccc1	-9	-9
O=C(Cc1ccncc1)NCC[C@@H]1CC[C@@H](NC(=O)Nc2cccc(F)c2)[C@@H](CO)O1	13	13

Sorted by length of the SMILES (smallest number first): five of the compounds above
SMILES	Vaccinia inh	Vaccinia inh Venus
C/C=C/c1ccc([C@H]2[C@@H](CO)N3CCCCN(C(=O)Nc4cc(F)ccc4F)C[C@H]23)cc1	-27	-19
O=C(C1CCC1)N1CC(=O)N2[C@H](CO)[C@@H](c3ccc(C#CCc4ccccc4)cc3)[C@@H]2C1	-15	-7
CN1C(=O)c2cc(NC(=O)c3cscn3)ccc2OC[C@H]2O[C@H](CC(=O)N3CCCCC3)CC[C@@H]21	15	9
Cc1noc(C)c1NC(=O)Nc1ccc2c(c1)CC(=O)N([C@H](C)CO)C[C@@H](C)[C@H](CN(C)C(=O)NC1CCCCC1)O2	15	4
Cc1ccc(S(=O)(=O)Nc2cccc3c2O[C@H](CN(C)Cc2ccc(C(=O)Nc4ccccc4N)cc2)[C@@H](C)CN([C@H](C)CO)C3=O)cc1	16	10

In a second layout: results already given.
| Compound | Vaccinia inh | Vaccinia inh Venus |
| --- | --- | --- |
| Cc1ccc(S(=O)(=O)Nc2cccc3c2O[C@H](CN(C)Cc2ccc(C(=O)Nc4ccccc4N)cc2)[C@@H](C)CN([C@H](C)CO)C3=O)cc1 | 16 | 10 |
| CS(=O)(=O)Nc1ccc2c(c1)[C@H]1C[C@H](CC(=O)NCCN3CCCCC3)O[C@@H](CO)[C@H]1O2 | 8 | 4 |
| C[C@@H]1CN([C@H](C)CO)C(=O)c2cc(NC(=O)Nc3cccc4ccccc34)ccc2O[C@@H](C)CCCCO[C@H]1CN(C)C(=O)NC1CCCCC1 | 13 | 26 |

(listing goes on)
SMILES	Vaccinia inh	Vaccinia inh Venus
COCC(=O)N1CC(=O)N2[C@@H](CO)[C@@H](c3ccc(C#Cc4cccc(OC)c4)cc3)[C@@H]2C1	-1	-12
O=C(C[C@@H]1CC[C@H]2[C@@H](COC[C@H](O)CN2C(=O)Nc2cccc(Cl)c2)O1)NCCCN1CCOCC1	16	10
COc1ccc(S(=O)(=O)N(C)C[C@@H]2Oc3c(NC(=O)c4nc5ccccc5s4)cccc3C(=O)N([C@H](C)CO)C[C@H]2C)cc1	-1	-3
CO[C@H]1CN(C)C(=O)c2ccc(NC(=O)C3CC3)cc2OC[C@@H](C)N(Cc2cc(F)ccc2F)C[C@@H]1C	-31	-25
O=C(C[C@@H]1C[C@@H]2c3cc(NC(=O)CC4CC4)ccc3O[C@@H]2[C@H](CO)O1)NCc1ccncc1	13	11
O=C(c1ccncc1)N1C[C@@H]2[C@H](c3ccccc31)[C@H](CO)N2C(=O)CN1CCOCC1	12	14
C[C@H]1CCCCO[C@@H](CN(C)C)[C@@H](C)CN([C@@H](C)CO)C(=O)c2cc(NS(=O)(=O)c3ccc(F)cc3)ccc2O1	4	0
C[C@@H]1CN([C@@H](C)CO)C(=O)c2cccc(NC(=O)CCCCCC(=O)Nc3ccccc3N)c2O[C@H]1CN(C)C(=O)Nc1ccc(C(F)(F)F)cc1	-3	10
COC(=O)C[C@H]1CC[C@H](NS(=O)(=O)c2ccc(OC)cc2)[C@@H](CO)O1	6	2
C[C@H](CO)N1C[C@H](C)[C@H](CN(C)C(=O)Nc2ccc(C(F)(F)F)cc2)Oc2ccc(NC(=O)Nc3cccc4ccccc34)cc2C1=O	10	15
C[C@H]1CN([C@@H](C)CO)S(=O)(=O)c2ccc(C#CCC3CCCC3)cc2O[C@H]1CN(C)C(=O)CC1CC1	?	.
COc1ccc(S(=O)(=O)Nc2ccc3c(c2)CC(=O)N([C@H](C)CO)C[C@H](C)[C@@H](CN(C)S(=O)(=O)c2ccc(Cl)cc2)O3)cc1	-31	-25
O=C(C[C@H]1CC[C@H]2[C@@H](COC[C@H](O)CN2Cc2ccc(Oc3ccccc3)cc2)O1)N1CCOCC1	-29	-30
O=C(CCN1CCCCC1)N[C@@H]1CC[C@H](CCNS(=O)(=O)c2ccc(Cl)cc2)O[C@@H]1CO	4	14
O=C(CCN1CCCCC1)NCC[C@H]1CC[C@H](NS(=O)(=O)c2cccc(F)c2)[C@@H](CO)O1	-9	0
C[C@@H]1CN([C@@H](C)CO)C(=O)c2cc(NS(=O)(=O)c3ccc(Cl)cc3)ccc2O[C@H]1CN(C)C(=O)Nc1ccccc1	17	6
COc1ccc(CN(C)C[C@@H]2Oc3c(NS(C)(=O)=O)cccc3C(=O)N([C@@H](C)CO)C[C@@H]2C)cc1	12	18
N#Cc1ccc(-c2ccc([C@@H]3[C@@H](CO)N4C(=O)CN(C(=O)C5CCCCC5)C[C@@H]34)cc2)cc1	-23	-38
COCCNC(=O)C[C@@H]1C[C@H]2c3cc(NC(=O)c4ccc5c(c4)OCO5)ccc3O[C@H]2[C@H](CO)O1	-3	-2
C[C@@H](NC(=O)C[C@H]1C=C[C@@H](NC(=O)Nc2ccc3c(c2)OCO3)[C@H](CO)O1)c1ccccc1	-2	6
CO[C@@H]1CC[C@H]2CCN(C)C(=O)C[C@@H](c3ccccc3)CN(C)C(=O)c3cccc(C#N)c3OC[C@@H]1O2	17	4
COc1ccccc1NC(=O)N[C@H]1CC[C@@H](CCn2cc(-c3cccnc3)nn2)O[C@@H]1CO	-5	-4
CCCN(C)C[C@H]1OCc2cnnn2CCCC(=O)N([C@@H](C)CO)C[C@@H]1C	8	8
C[C@H]1CN([C@@H](C)CO)C(=O)c2cc(C#Cc3ccncc3)cnc2O[C@@H]1CN(C)C(=O)c1ccccc1F	12	13
C[C@H](CO)N1C[C@H](C)[C@H](CN(C)C(=O)Nc2ccc3c(c2)OCO3)OCCCC[C@H](C)Oc2ccc(NC(=O)Nc3ccccc3)cc2C1=O	3	2
O=C(C[C@@H]1CC[C@H]2[C@@H](COC[C@H](O)CN2CC2CCOCC2)O1)NCC1CCCCC1	7	4
COc1ccccc1NC(=O)N1C[C@H](O)COC[C@@H]2O[C@H](CC(=O)NCc3ccccc3)CC[C@H]21	-1	2
CN1C[C@@H]2[C@H](c3ccccc31)[C@H](CO)N2C(=O)Nc1ccc(F)cc1	1	-2
O=C(Nc1ccc(F)cc1)N[C@@H]1C=C[C@H](CC(=O)N2CCCCC2)O[C@H]1CO	-5	-4
O=C(C1CCC1)N1CC2(C1)[C@H](c1ccccc1)[C@H](CO)N2Cc1ccccc1F	7	10
N#C[C@H]1[C@@H](c2ccccc2)[C@@H](CO)N1C(=O)C1CCCC1	-4	-9
CN1CCCCN2[C@H](C1)[C@H](c1ccc(C#CC3(O)CCCC3)cc1)[C@@H]2CO	17	9
Cc1ccc(S(=O)(=O)N(C)C[C@H]2OCCCC[C@@H](C)Oc3ccc(NC(=O)Nc4ccc5c(c4)OCO5)cc3C(=O)N([C@@H](C)CO)C[C@H]2C)cc1	-5	-1
C[C@@H](NC(=O)[C@@H]1[C@@H](CO)[C@@H]2Cn3c(ccc(-c4cccc(F)c4)c3=O)[C@@H]2N1C)c1ccccc1	19	7
NCCCCCCNC(=O)[C@H]1C[C@H]2C(=O)N[C@@H](Cc3ccccc3)C(=O)N2[C@H]1c1cccc(OCCO)c1	12	7
C[C@H](CO)N1C[C@H](C)[C@@H](CN(C)Cc2cncnc2)Oc2ncc(-c3ccc(F)cc3)cc2C1=O	6	6
CCNC(=O)[C@H]1[C@H](CO)[C@H]2Cn3c(ccc(C4=CCCCC4)c3=O)[C@H]2N1Cc1ccccc1F	12	8
COc1cccc(NC(=O)N2CC3(C2)[C@H](c2ccccc2)[C@H](CO)N3C(=O)C2CCC2)c1	14	9
C[C@@H]1CN([C@H](C)CO)C(=O)c2cc(/C=C/c3ccccc3)cnc2O[C@H]1CN(C)C(=O)c1cccc(F)c1	?	.
CN(C)C(=O)C[C@@H]1CC[C@@H]2[C@H](COc3ccc(NC(=O)Nc4cccc(Cl)c4)cc3C(=O)N2C)O1	9	11
CCC(=O)Nc1ccc2c(c1)C(=O)N(C)C[C@@H](OC)[C@H](C)CN(Cc1ccccc1F)[C@@H](C)CO2	-17	-8
O=C(CN1CCOCC1)N1CC(=O)N2[C@H](CO)[C@@H](c3ccc(-c4cccc(F)c4)cc3)[C@H]2C1	-9	-4
C[C@@H]1CCCCO[C@@H](CN(C)S(=O)(=O)c2ccccc2)[C@H](C)CN([C@@H](C)CO)C(=O)c2cc(NC(=O)CCCN(C)C)ccc2O1	13	6
Cc1ccc(S(=O)(=O)N(C)C[C@@H]2Oc3ccc(NC(=O)CCN4CCOCC4)cc3CC(=O)N([C@@H](C)CO)C[C@@H]2C)cc1	10	13
C[C@@H]1CN([C@@H](C)CO)C(=O)c2cccc(NC(=O)Nc3ccccc3)c2O[C@@H]1CN(C)S(=O)(=O)c1ccc(Cl)cc1	?	.
CO[C@@H]1CN(C)C(=O)c2cc(NS(=O)(=O)CC(F)(F)F)ccc2OC[C@@H](C)NC[C@@H]1C	12	10
O=C(CC1CC1)N[C@H]1C[C@@H]2O[C@H](CO)CC[C@@H]2O[C@@H]1CCc1ccc(C#Cc2ccccc2)cc1	-17	-8
COc1ccc(-c2ccc3c(c2)O[C@H](CN(C)C)[C@H](C)CN([C@H](C)CO)S3(=O)=O)cc1	-9	-10
Cc1ccc(S(=O)(=O)N(C)C[C@H]2OCCCC[C@H](C)Oc3ccc(NS(=O)(=O)c4c(C)noc4C)cc3C(=O)N([C@H](C)CO)C[C@H]2C)cc1	?	.
C/C=C/c1ccc2c(c1)O[C@H](CN(C)Cc1ccccc1)[C@@H](C)CN([C@H](C)CO)S2(=O)=O	?	.
Cc1ccc(S(=O)(=O)Nc2ccc3c(c2)CC(=O)N([C@H](C)CO)C[C@H](C)[C@@H](CN(C)C(=O)Nc2ccc4c(c2)OCO4)O3)cc1	5	4
CO[C@H](CN(C)C(=O)c1ccc2c(c1)OCO2)[C@H](C)CN([C@@H](C)CO)S(=O)(=O)c1ccc(F)cc1	8	10
C[C@H](NC(=O)[C@H]1[C@H](CO)[C@H]2Cn3c(cccc3=O)[C@@H]1N2Cc1ccccc1)c1ccccc1	14	13
C[C@H]1CCCCO[C@@H](CN(C)Cc2ccncc2)[C@@H](C)CN([C@@H](C)CO)C(=O)c2cc(NC(=O)Cc3ccccc3)ccc2O1	-13	-7

Screens (PubChem BioAssay)
